# Source: PubChem (National Center for Advancing Translational Sciences (NCATS))
# Menin MLL FP FL – qHTS Assay for Inhibitors Targeting the Menin-MLL Interaction in MLL Related Leukemias: Competition With Fluorescein Labeled MLL-derived Peptide. FP activity change, % at 61.4 µM. Fluorescence polarization, fluorescein-MLL peptide displacement from menin. 290,000 tested, under 10 active; inconclusive = falling polarisation curve, or a change in total fluorescence; inactive = total fluorescence flat and polarisation flat or rising; no compound was filed as active; the % refers to the polarisation; negative = inhibition;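 further: % of control where 0% means no effect; inhibitors lower the polarisation; unlabelled MLL peptide was the positive control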
# PINK1 expr mod – A Quantitative High throughput Screen to Identify Chemical Modulators of PINK1 Expression | PINK1 immunofluorescence, high-content cytometry, 24 h | Potency, µM (series often up to 76.6 µM), for inactives: top-dose activation (PINK1 increase), most hits filed as activators | 0.2% of 410,000 active; active = well fitted activation curve with a large enough effect; inconclusive = small, poorly fitted or top-dose-only effect; inactive = flat fitted curve, though single readings scatter; cell line not stated here;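 further: potency means the concentration at half of the fitted maximal effect; % of control where 0% means no effect; nearly all actives have a fitted effect of over 65% in size; a mitochondrial uncoupler was the plate control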
#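 PINK1 protein, normally rapidly degraded, was detected by immunofluorescence after 24 hour compound treatment of a stable cell line. Titration data (5 concentrations) came from laser-scanning cytometry, with CCCP-treated wells as controls.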
# ClpP mod – qHTS Assay for Activators of ClpP. purified B. subtilis ClpP, FRET peptide cleavage, 20 min. Potency, µM (series often up to 57.5 µM), for the others: top-dose activity change, negative = active. 1.9% of 340,000 active. AID 651965, 2013; active = well fitted falling curve with a large enough effect; inconclusive = small, poorly fitted or top-dose-only effect; inactive = no such curve, though single readings can be large or run the other way; further: potency means the concentration at half of the fitted maximal effect; the source files actives as falling curves though it sought activators and does not explain the sign; nearly all actives have a fitted effect of over 65% in size; many hits overshoot -100%
# Target sequence (P80244 whole entry, looked up): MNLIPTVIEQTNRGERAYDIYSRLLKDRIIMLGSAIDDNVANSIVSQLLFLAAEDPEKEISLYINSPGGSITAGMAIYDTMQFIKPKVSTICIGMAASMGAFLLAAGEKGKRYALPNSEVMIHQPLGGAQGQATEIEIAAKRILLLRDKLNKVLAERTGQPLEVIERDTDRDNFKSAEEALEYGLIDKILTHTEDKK
#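 Purified B. subtilis ClpP, 10 microg/mL final in Tris/HCl pH8 with KCl, BSA, glycerol and Tween-20, cleaved an Abz/nitrotyrosine-quenched decapeptide. Fluorescence (ex 320, em 430) was read at 0 and 20 min at room temperature. Delta was normalized to 5.8 microM ADEP and DMSO/no-enzyme controls.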
# Sfp PPTase inh – qHTS Assay for Inhibitors of Bacillus subtilis Sfp phosphopantetheinyl transferase (PPTase). 4'-phosphopantetheinyl transferase ffp (Bacillus subtilis), Q9F4F7. Biochemical Sfp PPTase activity, qHTS. Potency, µM, inactives show max response, negative = inhibition, most hits filed as inhibitors. 3.5% of 310,000 active. AID 1490, 2009; active means well fitted inhibition curve with a large enough effect; inconclusive means small, poorly fitted or top-dose-only effect, or another doubt; inactive means no such curve, though single readings can be large or run the other way;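 further: the enzyme is Sfp with the accession as filed and its product quenches rhodamine fluorescence; potency means the concentration at half of the fitted maximal effect; 0% = enzyme reaction without inhibitor and -100% = no enzyme wells; top concentration of the series not given in the record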
#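 Fluorescence-quenching assay with 15 nM Sfp, 5 uM rhodamine-CoA and 12.5 uM BHQ-2-labelled ybbR peptide in pH 7.6 Hepes/MgCl2 buffer. Enzyme was pre-incubated with compound for 15 min at room temperature. Rate was taken from the 30-min fluorescence change (525/598 nm).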
# TRPML1 blocker – qHTS for Inhibitors of the Human Mucolipin Transient Receptor Potential 1 (TRPML1); 0.02% of 390,000 active; activity change, negative = inhibition, % (concentration not given with the values); AID 624415, 2012; TRPML1-inducible cells, Ca2+ dye fluorescence, FDSS; active compounds read low; inhibition of EC80 agonist-evoked calcium signal; in the data active means activity change below about -50%; inconclusive means about -30% to -50%; inactive means above about -30%;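 further: stimulus is agonist 54-4 at its EC80 concentration; on the % scale 0 is the no-effect control and ±100 the full control effect; the text of the record puts the active cut at -80%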
#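 Calcium fluorescence in TRPML1-DL cells induced overnight with Tet: a 110 s read after compound pin addition, then a 110 s antagonist read after challenge with 54-4 at 4 uM final (EC80).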
# TRPV1 PAM – HTS Assay for Compounds that Act as Potentiators of the Vanilloid Receptor 1. AID 540277, 2011. TRPV1-expressing cells, Fluo-8 calcium influx, capsaicin EC20 potentiation; host cell line not named in the record; control for the full effect not named in the record. 0.02% of 320,000 active. potentiation, % at 8.33 µM. Transient receptor potential cation channel subfamily V member 1 (Homo sapiens), Q8NER1; active means potentiation above 80%; inconclusive means 30% to 80%; inactive means below 30%; further: 0% is about no effect
# Target sequence (Q8NER1 whole entry, looked up): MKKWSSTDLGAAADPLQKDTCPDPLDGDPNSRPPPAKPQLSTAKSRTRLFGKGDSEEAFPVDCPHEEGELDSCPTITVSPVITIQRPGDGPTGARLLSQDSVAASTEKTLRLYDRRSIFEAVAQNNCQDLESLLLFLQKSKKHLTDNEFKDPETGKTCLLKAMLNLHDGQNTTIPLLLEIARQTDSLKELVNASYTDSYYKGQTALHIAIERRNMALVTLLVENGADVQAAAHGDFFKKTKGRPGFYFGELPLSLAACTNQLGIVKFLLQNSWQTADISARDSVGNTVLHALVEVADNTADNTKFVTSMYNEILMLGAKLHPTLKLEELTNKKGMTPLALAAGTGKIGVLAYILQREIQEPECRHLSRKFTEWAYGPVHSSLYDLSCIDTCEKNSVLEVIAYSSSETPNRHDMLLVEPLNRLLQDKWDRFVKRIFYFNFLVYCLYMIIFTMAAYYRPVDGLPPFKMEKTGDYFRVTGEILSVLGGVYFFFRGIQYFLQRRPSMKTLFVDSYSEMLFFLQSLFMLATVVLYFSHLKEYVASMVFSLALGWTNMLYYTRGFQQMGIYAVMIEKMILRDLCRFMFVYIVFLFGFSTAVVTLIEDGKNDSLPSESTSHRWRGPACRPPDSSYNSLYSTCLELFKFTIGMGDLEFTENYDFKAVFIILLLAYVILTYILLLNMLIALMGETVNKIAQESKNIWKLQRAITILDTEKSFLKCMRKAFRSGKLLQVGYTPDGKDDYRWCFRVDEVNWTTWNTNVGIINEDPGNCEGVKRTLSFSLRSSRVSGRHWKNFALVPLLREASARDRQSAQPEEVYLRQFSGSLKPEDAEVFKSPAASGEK
#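 Fluo-8 calcium influx in TRPV1-expressing cells, kinetic read (ex 480/em 520 nm). Compound added and read 3 min for agonist activity, followed by capsaicin at EC20 final and 2 min further read for enhancement.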
# TRPML1 agonist – qHTS for Agonists of the Human Mucolipin Transient Receptor Potential 1 (TRPML1); Mucolipin-1 (Homo sapiens), Q9GZU1; TRPML1-expressing cells, Ca2+ dye fluorescence, FDSS; host cell line not named in the record; reference of the full effect not given here; activation, % (no concentration beside the values); 0.12% of 410,000 active; AID 624414, 2012; in the data active = activation above about 50%; inconclusive = about 30% to 50%; inactive = below about 30%; further: 0% is about no effect; the text of the record puts the active cut at 80%
#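 Tet-induced TRPML1-DL cells, 1,500 per well, cultured overnight, were loaded with a no-wash Ca2+ dye for 45–90 min. Calcium fluorescence was recorded on the FDSS for 110 s after compound addition, before the EC80 agonist (4 uM 54-4) was added.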
# The depositor's hits bear a star; ? = inconclusive; / = no result given; & = joins results of further samples; [ ] = dose if it differs, or a comment.
# Values in the order: Menin MLL FP FL	TRPML1 agonist	ClpP mod	Sfp PPTase inh	TRPV1 PAM	PINK1 expr mod	TRPML1 blocker
- CN1C(=O)N(C)C(=O)C2(Cc3c(nc4ccccn4c3=O)N3CCC(Cc4ccccc4)CC32)C1=O (stereo not drawn)
→ 2.6	/	/	-1%	1	/	/
- Cc1nc2ccc(Cl)cc2c(=O)n1-c1ccccc1Cl
→ -4.2	-0.4	-0.8%	1%	-8	0.4%	-5
- CCCNC(=O)N1[C@H]2CC[C@@H]1C(C(=O)OC)=C(c1ccc(Cl)c(C(F)(F)F)c1)C2
→ /	1.2	-1.8%	/	-20	0.1%	16
- O=P(Oc1ccc(Cl)cc1)(N1CC1)N1CC1
→ /	-0.1	/	/	/	-1.8%	2
- CN(C)C1(CNC(=O)c2cc(S(=O)(=O)N3CCOCC3)c(Cl)cc2Cl)CCCCC1
→ /	-0.4	-0.9%	/	1	-1.3%	-20
- CC1N=C(c2ccccc2)c2cc(Br)ccc2NC1=O (stereo not drawn)
→ 2.0	0.1	/	-1%	19	2.8%	-3
- CCCC(C)c1nnc(NC(=O)CCS(=O)(=O)c2ccccc2)s1 (stereo not drawn)
→ -0.7	0.4	/	18µM*	5	-0.2%	-18
- Cc1nc2ccccc2c(=O)n1-c1ccc(-c2ccccc2)cc1
→ -0.5	/	2.9%	10%	2	1.7%	/
- O=C1C(=O)c2cccc3cccc1c23
→ 3.8	0.6	-1.0%	10%	0	2.8%	-18
- Cc1ccc(-n2nc3ccc(NC(=O)COc4ccccc4C)cc3n2)cc1
→ /	-0.8	?	/	/	-0.5%	-14
- O=C1NCN(c2ccccc2)C12CCN(C(c1ccnc3ccccc13)c1nnnn1-c1ccc3c(c1)OCCO3)CC2 (stereo not drawn)
→ /	0.0	-1.1%	/	/	-0.8%	/
- COC(=O)C1C2c3ccccc3C(c3ccccc32)C1(C)C(=O)OC (stereo not drawn)
→ /	3.4	/	/	/	0.5%	18
- COc1cccc(-c2cc(C(F)(F)F)n3nc(C(=O)N4CCC5(CC4)OCCO5)cc3n2)c1
→ 0.9	4.5	-4.0%	-7%	-2	-5.1%[38.3 µM]	15
- Cc1ncc([N+](=O)[O-])n1CCOC(N)=O
→ 0.7	-0.6	0.1%	11%	16	0.4%	-8
- Fc1ccc(C(OCCN2CCCC2)c2ccc(Br)cc2)cc1 (stereo not drawn)
→ -0.6	3.2	0.2%	40µM*	11	-0.8%	34
- COc1ccc(-c2cc(=O)oc3c(C)c(OC(C)C(=O)N4C[C@H]5C[C@@H](C4)c4cccc(=O)n4C5)ccc23)cc1 (stereo partly drawn)
→ 1.3	/	?	14%	-5	1.3%	/
- O=c1c2ccccc2nc(/C=C/c2ccccc2)n1-c1ccc(O)cc1
→ 0.5	2.7	/	11%	3	3.6%	-1
- Cn1c(=O)oc2cc(S(=O)(=O)NCc3cccnc3)ccc21
→ 11	0.5	/	79µM*	16	3.4%	-3
- CCCc1cc(=O)oc2cc(OCC(=O)N3CCC(C(=O)O)(c4ccccc4)CC3)ccc12
→ -1.1	/	4.7%	20%	22	0.4%	/
- CC(C)CC1(CCc2ccccc2)C(=O)NC(=O)NC1=O
→ /	0.3	/	/	/	-0.8%	-12
- O=c1[nH]c(=O)n(-c2cccc(Cl)c2)c(O)c1/C=N/c1ccccn1
→ 3.2	-0.9	?	11%	0	-0.6%	-4
- COc1ccccc1CNc1nc(NCc2ccccc2SC)c2sccc2n1
→ /	-0.3	?	/	/	?	/
- CC(=O)c1cccc(NC(=O)c2cccn(Cc3cccc(C)c3)c2=O)c1
→ /	0.1	-4.5%	/	/	0.2%	-17
- CC[N+](CC)(CC)CCCOC(=O)C(O)(c1ccccc1)C1CCCCC1 (stereo not drawn)
→ -2.1	-0.3	-1.2%	10%	-12	2.6%	16
- Cc1ccc2c(c1)C1CN(C)CCC1N2C(=O)Cc1cccs1 (stereo not drawn)
→ 1.2	0.5	-0.8%	12%	-11	-0.7%[38.3 µM]	10
- CCC(c1nnnn1-c1ccc(OC)cc1)N1CCC(n2c(=O)[nH]c3ccccc32)CC1 (stereo not drawn)
→ /	-0.8	-1.1%	/	/	1.1%	/
- Oc1ccc(Cl)cc1
→ -3.8&5.2	-0.8	-4.0%	6%&2%	/	0.0%	-6
- COC(=O)C1C(OC(=O)c2ccccc2)CC2CCC1N2C (stereo not drawn)
→ -0.7&0.3	0.3	-2.9%&2.2%	17%&24%	15	-0.1%&-0.7%	3
- CCN1CCN(CC(=O)c2c(C)n(Cc3ccccc3)c3ccc(OC)cc23)CC1
→ 7.0	1.5	4.8%	4%	-9	-2.1%	8
- CC[n+]1c(-c2ccccc2)c2cc(N)ccc2c2ccc(N)cc21
→ /	0.0&0.5	0.0%&-1.7%	?	/	-5.6%&2.1%&-0.5%	7
- COc1ccccc1-n1c(-c2ccc(C)cc2)nc2ccccc2c1=O
→ 7.0	2.0	/	8%	-16	3.7%	-5
- COCCCNC(=O)Cn1cc(/C=C2\C(=O)NC(=O)N(c3ccccc3F)C2=O)c2ccccc21
→ ?	-1.1	0.1%	-22%	?	5.6%	-6
- CN(C)C(=O)Oc1ccc(OCc2n(C)c3ccccc3[n+]2C)cc1
→ 2.3	0.9	-25%	2%	-3	2.2%	-13
- O=c1cccc2n1CC1CC2CN(c2ncnc3c2cnn3-c2ccccc2)C1 (stereo not drawn)
→ 4.7	-0.2	-15%	11%	/	-1.1%	-11
- CC(N)Cc1cn(Cc2ccccc2)c2ccccc12 (stereo not drawn)
→ 7.7	0.7	-2.8%	5%	11	3.0%	-9
- CC12CCC(=O)C=C1CCC1C2C(O)CC2(C)C(O)CCC12 (stereo not drawn)
→ /	-0.4	/	/	/	-0.1%	-6
- CCCOC(=O)C1C2c3ccccc3C(c3ccccc32)C1C(=O)O (stereo not drawn)
→ -8.8	-0.5	/	29%	1	0.0%	-10
- CC1(C)C2CC=C(CN3CCOCC3)C1C2 (stereo not drawn)
→ -1.6	-0.1	-0.5%	6%	1	16%[38.3 µM]	2
- CCOC(=O)c1c(C)n(Cc2ccccc2)c2ccc(OCC(O)Cn3nc(C)nc3C)cc12 (stereo not drawn)
→ 4.0	-0.7	-22%	-29%	?	3.3%	-11
- Cc1cc(C(=O)Nc2ccccc2)nn1C(C)(C)C
→ -2.5	0.8	/	13%	-25	0.8%	-3
- O=c1c2cc(N3CCOCC3)ccc2[nH]c(=S)n1Cc1ccc(Cl)cc1
→ 3.3	-0.2	11%	16µM*	-6	13%	14
- CCOC(=O)c1c(N)n(Cc2ccco2)c2nc3ccccc3nc12
→ ?	26	5.4%	?	-4	3.5%	-4
- O=C(O)C1C2c3ccccc3C(=O)C1(C(=O)O)c1ccccc12 (stereo not drawn)
→ /	-0.5	1.0%	/	/	-3.6%	11
- C=C[C@H]1CN2CC[C@H]1C[C@@H]2[C@@H](O)c1ccnc2ccccc12
→ /	0.2	-2.2%	/	-19	-0.4%	-3
- COc1cc(C(=O)N/N=C/C23CC[C@@H](O)CC2(O)CC[C@@H]2[C@@H]3CCC3(C)C(C4=CC(=O)OC4)CCC23O)ccc1O (stereo partly drawn)
→ 5.4	-1.1	/	20%	-30	-1.5%	10

# Copied from the entries so far (2 entries):
# Values in the order: Menin MLL FP FL	TRPML1 agonist	ClpP mod	Sfp PPTase inh	TRPV1 PAM	PINK1 expr mod	TRPML1 blocker
- O=C(O)C1C2c3ccccc3C(=O)C1(C(=O)O)c1ccccc12 (stereo not drawn)
→ /	-0.5	1.0%	/	/	-3.6%	11
- C=C[C@H]1CN2CC[C@H]1C[C@@H]2[C@@H](O)c1ccnc2ccccc12
→ /	0.2	-2.2%	/	-19	-0.4%	-3

# Next part.
# Values in the order: Menin MLL FP FL	TRPML1 agonist	ClpP mod	Sfp PPTase inh	TRPV1 PAM	PINK1 expr mod	TRPML1 blocker
- Cn1c(O)c(/C=C/C=Nc2ccccc2)c(=O)n(C)c1=S
→ ?	28	0.8%	-11%	-3	25%	10
- CC(=O)Nc1ccc(OCCF)cc1
→ -0.1	0.1	/	17%	10	0.7%	0
- O=c1[nH]/c(=C\c2ccc(N(CCCl)CCCl)cc2)c(=O)[nH]/c1=C\c1ccc(N(CCCl)CCCl)cc1
→ /	2.7	1.0%	/	/	0.7%	/
- Brc1ccccc1CNCCc1ccc2c(c1)OCO2
→ 0.3	-0.4	1.1%	-22%	12	1.6%	3
- CCC(=NCC1CCCO1)c1c(O)n(-c2ccccc2C)c(=O)[nH]c1=O (stereo not drawn)
→ 1.9	0.3	/	-9%	/	0.0%	7
- C=C[C@@]12CN(C)[C@H]3[C@H]1[C@@]1(C(=O)Nc4ccccc41)C1CC2[C@@H]3CO1
→ /	0.5	-2.9%	/	1	1.3%	-1
- COc1ccc(Br)cc1CNCCc1ccc2c(c1)OCO2
→ /	-0.5	-0.2%	/	/	4.4%	-3
- C[C@H](CO)N1C[C@H](C)[C@@H](CN(C)C(=O)Oc2ccccc2)OCc2cnnn2CCCC1=O
→ /	-0.3	-3.1%	/	/	-0.5%	13
- Cc1ccc(N2C(=O)NC(=O)/C(=C\c3cnc(-c4ccccc4)nc3)C2=O)cc1
→ ?	-0.5	-1.5%	56µM*	-4	4.3%	5
- CCOC(=O)[C@]12Cc3ccccc3[C@H]1N(Cc1ccccc1)C(=O)c1cc(F)c(F)cc12
→ /	0.0	-4.3%	/	/	0.7%	/
- CC(=NCc1cccnc1)c1c(O)n(-c2ccc(C)cc2)c(=O)[nH]c1=O
→ 0.3	-0.7	1.8%	13%	-13	-1.6%[38.3 µM]	21
- Cn1cc(C(=O)N2CCCCC2)c2ccccc21
→ -0.1	-0.4	-2.5%	25%	-2	0.3%	-15
- Cn1cccc1C1CCCN1CC(=O)Nc1ccc(C#N)c(Cl)c1 (stereo not drawn)
→ /	-0.8	/	/	/	0.8%	7
- O=S(=O)(c1ccc(Cl)cc1Cl)N1CCCC1c1cccnc1 (stereo not drawn)
→ 2.3	1.2	/	6%	11	1.3%	-6

# This is a subset; the hit share may differ from the screen's.
